Screening data as filed in PubChem.
Mtb H37Rv – M. tuberculosis H37Rv growth inhibitors, H37Rv strain (AID 1626). M. tuberculosis H37Rv growth inhibition; higher % means a stronger effect. inhibition, % at 10 µM; hits with a dose series show IC50 in µM. 220,000 compounds, 0.95% hits;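 active means confirmed in a dose series; inconclusive means inhibition above 80% but not taken into the dose series; inactive means below 80% or under 30% at every dose of the series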;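 further: bacteria incubated seven days before Alamar blue readout; 0% = bacteria only wells and 100% = bacteria with antibiotic wells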
YopH inh – inhibitors of Yersinia enterocolitica YopH tyrosine phosphatase; 140,000 compounds, 0.16% hits; fluorescence Ex485/Em525; inhibition, %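 (about 10 µM by stock and volumes)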;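 active means inhibition of 50% or more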;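 further: controls were vehicle for no effect and minimum signal wells for full effect; inactives centre near -20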
Arbovirus anti – antivirals against arbovirus infection; inhibition, % at 10 µM; arbovirus infection cell-based antiviral screen; 200,000 compounds, 0.37% hits; AID 1251;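 active means inhibition from about 30%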;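 further: bluetongue infection of BSR cells; cell survival read as ATP light after 72 h; 0% = infected wells without compound and 100% = uninfected wells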
Mtb bLac sens – beta-lactam sensitization of Mtb H37Rv. M. tuberculosis H37Rv growth with meropenem, percent inhibition; hits of this screen are not shown here. inhibition, % at 25 µM. 330,000 compounds, 0.27% hits. AID 434955;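 active means about 74% or more and at least 40 points above the plate without the antibiotic, then above 30% in a dose series; inconclusive means first-round hits that could not be retested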;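 further: growth measured after seven days incubation then overnight dye step; 0% = bacteria only wells and 100% = bacteria with antibiotic; twin plates without the antibiotic show which effects depend on it; some results filed as inactive read as strong as hits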
RecA intein inh – Mtb RecA intein splicing inhibition; cell-free RecA intein splicing, fluorescence; inhibition, %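 (about 9 µM by stock and volumes)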; 290,000 compounds, 0.75% hits; in the data active means inhibition above about 30%; inconclusive means no clear call, values can overlap the other calls;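 further: 0% = vehicle wells and 100% = reference inhibitor control wells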
Target sequence (P9WHJ3 whole entry, looked up): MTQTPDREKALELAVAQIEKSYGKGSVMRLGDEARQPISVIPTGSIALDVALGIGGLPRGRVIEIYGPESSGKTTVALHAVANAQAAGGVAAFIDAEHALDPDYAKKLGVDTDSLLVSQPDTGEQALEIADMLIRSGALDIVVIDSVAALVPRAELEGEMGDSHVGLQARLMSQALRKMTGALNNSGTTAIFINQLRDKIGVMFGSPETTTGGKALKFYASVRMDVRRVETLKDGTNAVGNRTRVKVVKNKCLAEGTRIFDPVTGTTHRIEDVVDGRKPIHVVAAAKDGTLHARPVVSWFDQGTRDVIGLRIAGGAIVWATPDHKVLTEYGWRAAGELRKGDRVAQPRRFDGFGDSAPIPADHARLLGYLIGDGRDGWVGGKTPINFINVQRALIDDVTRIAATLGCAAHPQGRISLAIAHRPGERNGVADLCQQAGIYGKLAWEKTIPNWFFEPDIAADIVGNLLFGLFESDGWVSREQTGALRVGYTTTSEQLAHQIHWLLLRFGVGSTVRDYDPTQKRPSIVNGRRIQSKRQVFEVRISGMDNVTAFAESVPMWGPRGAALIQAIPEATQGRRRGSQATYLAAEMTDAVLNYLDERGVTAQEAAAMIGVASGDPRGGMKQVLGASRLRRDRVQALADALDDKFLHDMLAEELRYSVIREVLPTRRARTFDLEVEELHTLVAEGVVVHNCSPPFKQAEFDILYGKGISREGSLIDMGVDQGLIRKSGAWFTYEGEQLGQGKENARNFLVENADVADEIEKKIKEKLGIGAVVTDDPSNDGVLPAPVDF
Arbovirus anti repeat – second read-out of Arbovirus anti, no call of its own (marks repeat the call); inhibition, %; measured here: 10K subset replicate screen; many hits read low in the repeat;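 first of two repeat runs on a subset; 0% = infected and 100% = uninfected wells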
* hit, by the source's call; ? = inconclusive; nt = no result given. The list is partial; the hit share may differ from the screen's.

SMILES	Mtb H37Rv	YopH inh	Arbovirus anti	Mtb bLac sens	RecA intein inh	others
O=C(NCC1CCCO1)c1c(O)c2cccc3c2n(c1=O)CC3 (configuration not stated)	0%	-7	1	0	-1.2
CCn1c(Sc2nc(C)nc3scc(-c4cccs4)c23)n[nH]c1=O	5%	-44	16	1	-0.7
COC(=O)[C@@]1(Cc2ccc(OC)cc2)[C@@H]2[C@@H](CC(=O)[C@H]2CC(=O)C(=O)N(C)C)CN1C(=O)c1ccccc1	12%	-10	7	-1	-1.4
C=Cn1cc[n+](CC(=O)c2ccc(Cl)cc2)c1	nt	nt	nt	-8	-1.0
O=C(Nc1ccc(F)cc1)c1ccccc1NS(=O)(=O)N1CCCC1	2%	nt	19	-6	0.1
CC1(C(=O)NNC(=S)NCc2ccco2)CC1(Cl)Cl (configuration not stated)	-11%	nt	9	3	-0.4
CC(CNC(=O)CCC(=O)N1CCOc2ccc(Cl)cc21)c1ccccc1 (configuration not stated)	nt	nt	nt	-7	3.0
O=C(Nc1cccc(S(=O)(=O)N2CCOCC2)c1)c1ccc2c(=O)n3c(nc2c1)CCCCC3	0%	nt	-14	0	2.6
COc1ccc(-c2cn3ccccc3n2)cc1[N+](=O)[O-]	4%	-9	1	17	-4.6
CCOC(=O)N1CCC(NC(=O)c2cc3ccccn3n2)CC1	nt	-53	3	3	0.0	Arbovirus anti repeat=3
COc1cc(-c2nc3n(c(=O)c2C#N)CCS3)cc(OC)c1OC	nt	nt	nt	1	-0.5
CCO[C@H]1OC(C(=O)N2CCN(Cc3ccccc3)CC2)=C[C@@H](C2CCCCC2)[C@@H]1CCCO	1%	nt	-7	-1	5.8
CCOC(=O)c1cc(-c2ccccc2)nc2ccc(C)cc12	29%	nt	nt	?	1.9
Oc1ccc(Nc2nc(Cl)nc(NCc3ccco3)n2)cc1	10%	-21	-7	28	-2.4
Cc1ccc(C(=O)C2(C)C3c4cc(Br)ccc4OC(=O)C32C(=O)c2ccco2)cc1 (configuration not stated)	3%	4	1	28	2.0
N#Cc1ccc(-c2csc(NC(=O)c3cc(-c4cccs4)nc4ccccc34)n2)cc1	6%	nt	nt	74	-5.8
O=C1NC2(CCCC2)C(=O)N1Cc1cc(=O)n2ccsc2n1	6%	nt	nt	-1	1.7
CCC(=O)c1ccc(OC(=O)N(C)c2ccccc2)cc1	6%	nt	4	1	7.6
CC(Oc1ccccc1)C(=O)N1CCN=C1SCc1ccc(F)cc1 (configuration not stated)	4%	nt	nt	0	9.7
Cc1ccc(Nc2nc3ccccc3c(=O)s2)cc1	-2%	nt	4	-5	-0.7

The final seven records of the part above open the next one:
SMILES	Mtb H37Rv	YopH inh	Arbovirus anti	Mtb bLac sens	RecA intein inh	others
Oc1ccc(Nc2nc(Cl)nc(NCc3ccco3)n2)cc1	10%	-21	-7	28	-2.4
Cc1ccc(C(=O)C2(C)C3c4cc(Br)ccc4OC(=O)C32C(=O)c2ccco2)cc1 (configuration not stated)	3%	4	1	28	2.0
N#Cc1ccc(-c2csc(NC(=O)c3cc(-c4cccs4)nc4ccccc34)n2)cc1	6%	nt	nt	74	-5.8
O=C1NC2(CCCC2)C(=O)N1Cc1cc(=O)n2ccsc2n1	6%	nt	nt	-1	1.7
CCC(=O)c1ccc(OC(=O)N(C)c2ccccc2)cc1	6%	nt	4	1	7.6
CC(Oc1ccccc1)C(=O)N1CCN=C1SCc1ccc(F)cc1 (configuration not stated)	4%	nt	nt	0	9.7
Cc1ccc(Nc2nc3ccccc3c(=O)s2)cc1	-2%	nt	4	-5	-0.7
COc1ccc(NC(=O)Cn2nnc(-c3ccccc3N)n2)cc1OC	-5%	-7	3	-6	-0.6
CCc1ccc(NC2=NCC(=O)N2Cc2ccc3c(c2)OCO3)cc1	4%	-35	14	-3	1.7
NC(=O)COC(=O)CCCc1c[nH]c2ccccc12	-13%	-4	13	-11	-1.1
CCN1CCN(C(c2ccc(OC)cc2)C(O)C(=O)c2c[nH]c3ccccc23)CC1 (configuration not stated)	0%	-18	-2	-8	4.1
C=CCn1nnnc1SCC(=O)Nc1ccc(OC)cc1	nt	nt	nt	-24	-1.2
COc1cccc(-c2nc3sc4c(c3c(=O)[nH]2)CCCCC4)c1	2%	-24	-9	-6	-2.5
Cc1cc(NC(=O)CSc2nnc(-c3ccc(S(=O)(=O)N4CCCC4)cc3)n2C)no1	-10%	-50	0	2	-4.5
Cc1ccccc1S(=O)(=O)Cc1ccc(C(=O)NCc2ccco2)o1	nt	nt	nt	5	-0.1
O=C(CN1CCN(c2ccc(O)cc2)CC1)Nc1ccc(-c2ccccc2)cc1	nt	nt	nt	7	-4.1
COc1ccc2c(CSc3nnc(-c4cccnc4)n3-c3ccccc3F)cc(=O)oc2c1	-17%	-48	-8	-22	-1.1
O=[n+]1c2c(n([O-])c3cc(Br)ccc31)CCCC2	-1%	-9	-13	2	-0.1
OC1(c2ccc(F)cc2)CN(c2ccccc2)C2=[N+]1CCS2 (configuration not stated)	nt	-26	-1	0	2.3
CCS(=O)(=O)c1ccc(O)c(NC(=O)COc2ccc(C)cc2)c1	1%	-17	-4	-3	3.4
O=C(NCc1ccccc1)c1nc2c(nnn2Cc2cccc(Cl)c2)c(=O)[nH]1	-4%	-14	0	-8	6.5
O=C(NCCCn1ccnc1)c1ccc(-c2ccccc2)cc1	nt	nt	nt	-7	-2.2
O=C(O)/C=C/c1ccccc1Oc1ccccc1	-7%	-41	23	5	nt
CCOC(=O)Nc1sc2c(c1C#N)CCCC2	-1%	-8	-20	5	-7.0
COc1ccc(C(=O)NCc2nnc(SCC(=O)Nc3cccc(OC)c3)o2)cc1	nt	nt	nt	2	-1.9
Cc1cc(N2CCCCC2)nc(SCc2ccc(C#N)cc2)n1	0%	-28	2	10	2.5
COCCn1c(SCC(=O)Nc2ccccc2OC)nc2c([nH]c3ccccc32)c1=O	nt	nt	nt	-20	-0.5

Next part, starting with the last 2 of the part before.
SMILES	Mtb H37Rv	YopH inh	Arbovirus anti	Mtb bLac sens	RecA intein inh	others
Cc1cc(N2CCCCC2)nc(SCc2ccc(C#N)cc2)n1	0%	-28	2	10	2.5
COCCn1c(SCC(=O)Nc2ccccc2OC)nc2c([nH]c3ccccc32)c1=O	nt	nt	nt	-20	-0.5
O=C(O)c1cc(S(=O)(=O)O)cc(Nc2c3ccccc3nc3ccccc23)c1O	nt	nt	nt	3	-11
O=c1[nH]c(CN2CCN(c3ccc([N+](=O)[O-])cc3)CC2)nc2ccsc12	17%	-13	5	3	-0.9
CC(=O)c1cccc(NC(=O)COC(=O)c2ccc(S(C)(=O)=O)c([N+](=O)[O-])c2)c1	-2%	nt	-6	9	1.9
COc1ccc(CCNC(=O)CSc2cccc3cccnc23)cc1OC	4%	nt	26	0	-1.5
CCCNC(=O)NC(C(=O)OC)C12CC3CC(CC(C3)C1)C2 (configuration not stated)	4%	-5	9	-2	-0.5
Cc1ccc(N2CCN(S(=O)(=O)c3ccc4oc(=O)ccc4c3)CC2)c(C)c1	nt	nt	nt	-3	6.8
O=C(NCCC1=CCCCC1)c1cc(S(=O)(=O)N2CCOCC2)c(Cl)cc1Cl	nt	nt	nt	3	-2.6
N#CCCN(CCN1CCCC1)S(=O)(=O)c1ccc(-c2ccc([N+](=O)[O-])cc2)cc1	7%	nt	-3	-13	-2.0
O=C(/C=C/c1ccco1)Nc1ccc(C(=O)N2CCOCC2)cc1	-6%	-4	1	-1	0.6
Cc1nc(CN(C)Cc2nc(Cc3ccccc3Cl)no2)cs1	-6%	nt	2	4	2.1
Fc1cnc(N2CCOCC2)nc1N1CCc2ccccc21	-12%	-17	0	50	7.1
COc1cccc(NC(=S)N/N=C2\CC3CCC2(C)C3(C)C)c1 (configuration not stated)	-2%	nt	18	0	2.1
COc1cc(NC(=O)NCc2ccncc2)cc(OC)c1OC	-5%	-33	0	7	4.1
Cc1ccc(C2(C)NC(=O)N(CC(=O)Nc3ccccc3C(=O)NC3CCCC3)C2=O)cc1 (configuration not stated)	nt	nt	nt	-5	2.6
Cc1[nH]nc2c1C(c1ccc(F)cc1)C1=C(CC(C)(C)CC1=O)N2 (configuration not stated)	-9%	-24	-2	-8	-0.9
CCc1ccc(NC(=S)NC2CC3CCCC(C2)N3Cc2cccs2)cc1 (configuration not stated)	9%	-13	-15	13	3.9
Cn1cccc1Cc1nnc(SCC(=O)NCC2CCCO2)n1C (configuration not stated)	0%	nt	1	-4	-5.4
CC(=O)Nc1ccc(NC(=O)c2nccnc2C(=O)O)cn1	nt	nt	nt	-4	1.9
Cc1ccc(S(=O)(=O)/N=C(/c2ccccc2)N2CCOCC2)cc1	-3%	nt	0	-7	-0.8
CCC(=O)Nc1sc(C(=O)N2CCCCC2)c(C)c1C#N	-10%	-23	3	2	0.1

Overlap with the part before: 5 entries; new compounds follow.
SMILES	Mtb H37Rv	YopH inh	Arbovirus anti	Mtb bLac sens	RecA intein inh	others
CCc1ccc(NC(=S)NC2CC3CCCC(C2)N3Cc2cccs2)cc1 (configuration not stated)	9%	-13	-15	13	3.9
Cn1cccc1Cc1nnc(SCC(=O)NCC2CCCO2)n1C (configuration not stated)	0%	nt	1	-4	-5.4
CC(=O)Nc1ccc(NC(=O)c2nccnc2C(=O)O)cn1	nt	nt	nt	-4	1.9
Cc1ccc(S(=O)(=O)/N=C(/c2ccccc2)N2CCOCC2)cc1	-3%	nt	0	-7	-0.8
CCC(=O)Nc1sc(C(=O)N2CCCCC2)c(C)c1C#N	-10%	-23	3	2	0.1
CCOC(=O)CN1C(=O)S/C(=C/c2ccc(C)o2)C1=O	nt	nt	nt	6	1.6
O=C(CSc1nnnn1C1CCCC1)NCCc1ccccc1	nt	nt	nt	2	0.6
CN1N=C(C(=O)N2CCCC(C(=O)c3cccc(C(F)(F)F)c3)C2)CCC1=O (configuration not stated)	5%	nt	5	-2	nt
CCCCNS(=O)(=O)c1ccc(S(=O)(=O)NCc2ccncc2)cc1	1%	-18	6	-7	-0.2
OC(CN1c2ccccc2Sc2ccccc21)Cn1nnc2ccccc21 (configuration not stated)	0%	-53	2	-1	-0.2	Arbovirus anti repeat=-9
CCOC(=O)CCCNC(=O)COC(=O)c1cc2ccccc2cc1O	42%	-22	-2	76	-1.9
O=[N+]([O-])c1ccc(-c2nn(-c3ccccc3)cc2/C=N/n2c(-c3ccncc3)n[nH]c2=S)cc1	-2%	nt	nt	-6	-0.6
CCC(C)(NC(=O)c1ccccn1)C(=O)NC1CCCC1 (configuration not stated)	-4%	nt	0	-11	2.9
Cc1noc(C)c1CSCC(=O)Nc1nc2ccc(F)cc2s1	nt	nt	nt	-8	-1.3
Cc1ccc(C(=O)NCC(=O)OCC(=O)NCCNC(=O)COC(=O)CNC(=O)c2ccc(C)cc2)cc1	nt	nt	nt	-11	0.0
COc1ccc(CN(Cc2ccc(C(=O)O)cc2)C(=S)Nc2cc(C)cc(C)c2)cc1OC	-1%	nt	4	-2	5.7
Cc1c(CCC(=O)O)c(=O)oc2c(C)c3occ(-c4ccc(Cl)cc4)c3cc12	nt	nt	nt	60	12
CN(Cc1ccccc1)Cc1ccccc1OC(=O)N(C)C	1%	-40	7	-5	0.4
COc1ccc2c(/C=N/NS(=O)(=O)c3ccc(C)cc3)c[nH]c2c1	2%	nt	nt	-4	-4.2
O=C(CN1CCOCC1)NCCc1ccccc1	nt	nt	nt	-6	-0.6
COc1ccc(S(=O)(=O)N(C(=O)C(C)C)c2ccc3oc(=O)sc3c2)cc1	-4%	-3	-2	-11	3.9

2 entries picked at random from the list so far:
SMILES	Mtb H37Rv	YopH inh	Arbovirus anti	Mtb bLac sens	RecA intein inh	others
COc1ccc(S(=O)(=O)N(C(=O)C(C)C)c2ccc3oc(=O)sc3c2)cc1	-4%	-3	-2	-11	3.9
COc1ccc2c(/C=N/NS(=O)(=O)c3ccc(C)cc3)c[nH]c2c1	2%	nt	nt	-4	-4.2
